PrP UTR inh = inhibition of PrP 5' UTR reporter expression; cell-based PrP 5' UTR mRNA reporter, plate reader; inhibition, % (concentration not given with the values); 340,000 compounds, 0.35% hits; AID 488862;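 active = every replicate at 50% or more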;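 also: 0 = median of the neutral control wells; tested in H4 reporter cells; numbers are from one replicate; inactives centre near -14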
Mtb hypoxia inh = inhibitors of hypoxia-regulated fluorescent reporter in Mycobacterium tuberculosis | fluorescence inhibition, % (concentration not given with the values) | M. tuberculosis hypoxia-regulated fluorescent reporter, fluorescence | AID 1159583 | 300,000 compounds, 0.1% hits;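 active = 35 to 45% if threefold the growth effect, above 45% if 1.5-fold the growth effect; inactive = the rest, general growth blockers included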;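 also: wells of about 50 µL received 100 nL stock; 0% = vehicle wells and 100% = reference inhibitor wells; whole bacteria with a GFP reporter of the hypoxia response; strong numbers were not always called active; many hits fall short of the cut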
Autofluor counter = counter-screen for toxin protease inhibitors: compound fluorescence. compound autofluorescence counterscreen, microsphere flow cytometry; stronger effect = higher value. fluorescence intensity (concentration not given with the values). 360,000 compounds, 3.1% hits. AID 624483;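 active = at least 3 SD above the mean of all compounds, about 16000 in these data; inconclusive = too few beads counted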;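 also: 100 nL of 1 mM stock went into each well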
BJeLR lethal = BJeLR cell viability loss | BJeLR (HRASV12) viability, CellTiter-Glo ATP luminescence, 48 h; reference of the scale not given here | 300,000 compounds, 0.17% hits | AID 1554 | inhibition, % (no concentration beside the values);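 active = replicate mean above 50%; inconclusive = above 50% but judged a plate artefact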;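 also: 50 nL library stock added to about 25 µL; numbers are from one replicate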
RN4220 kill = kills Staphylococcus aureus RN4220 | AID 1259311 | S. aureus RN4220 growth, OD600, 16 h | 330,000 compounds, 0.33% hits | inhibition, % (concentration not given with the values);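 active = z-score of -3 or lower and OD600 up to 0.18 on both plates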;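 also: plate controls were untreated cells for no effect and reference antibiotic for full effect; stock transfer was 100 nL into about 80 µL; one replicate is shown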
Sa ugtP lethal = compounds lethal to S. aureus RN4220 ugtP deletion mutant; OD600 growth, 16 h; some inactives read as strong as hits; 330,000 compounds, 0.54% hits; growth inhibition, % (test concentration not listed);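 active = z-score under -3 and OD600 up to 0.15 on both plates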;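 also: plate controls were untreated wells for no effect and antibiotic for full effect; wells of about 80 µL received 100 nL stock; the first replicate is given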
Mtb hypoxia inh growth = further read-out of Mtb hypoxia inh, marked with its call; growth inhibition, %; measured here: M. tuberculosis growth (absorbance);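 0% = vehicle and 100% = reference antibiotic; read after six days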
The depositor's hits bear a star; ? = inconclusive; nt = not tested or not shown; & = joins results of further samples.

SMILES | PrP UTR inh | Mtb hypoxia inh | Mtb hypoxia inh growth | Autofluor counter | BJeLR lethal | RN4220 kill | Sa ugtP lethal
CCn1nc(NC(=O)c2ccncc2)c2cc3cccc(C)c3nc21 | 5 | 5 | 6 | 9396 | -12 | -0.3 | -6
NC(=O)CSc1nnc(-c2cccnc2)n1Cc1ccccc1 | -14 | -2 | -2 | 10915 | 4 | 0.8 | 6
CN(CC(=O)Nc1ccc(F)c(F)c1F)C(=O)C1COc2ccccc2O1 (stereo not drawn) | -18 | 0 | 4 | 8163 | nt | 5.8 | 3
Cc1cc(/C=C(/C#N)c2cccc(F)c2)c(C)n1-c1cccnc1 | -98 | 5 | 8 | 13257 | 3 | -0.1 | 2
CC(O)C1NC(=O)c2cc([N+](=O)[O-])cc(I)c2NCCC(C(N)=O)NC(=O)CNC1=O (stereo not drawn) | nt | 0 | 3 | nt | nt | 2.8 | 2
CC(=O)O[C@@H]1[C@H]2[C@@H](C[C@@H](C)[C@@H]3C=CC(=O)[C@@]13C)OC(=O)[C@@H]2C | -8 | nt | nt | 3826 | -5 | nt | nt
COc1ccccc1CNC(=O)C(NC(=O)C1CCCCC1)C(C)C (stereo not drawn) | -13 | 15 | -1 | 4601 | 9 | 0.6 | 0
Cc1cc([N+](=O)[O-])nn1CCC(=O)NC1CCCCCC1 | -28 | 13 | 9 | 2296 | 1 | 3.4 | 3
Cc1ccc(C)c(C(=O)CN2C(=O)c3ccccc3S2(=O)=O)c1 | 9 | -2 | -4 | ? | 2 | 3.6 | 0
CCn1c(=O)c2ccccc2n(Cc2ccc([N+](=O)[O-])cc2)c1=O | 6 | 5 | -2 | 3257 | -4 | 0.9 | -1
CCN(C[C@H]1N[C@@](C)(C(=O)OC)[C@H]2C(=O)N(C)C(=O)[C@@H]12)C(=O)Nc1ccc(Cl)cc1 | -14 | 4 | 2 | 3948 | nt | 4.6 | 4
COc1ccc(Nc2ncnc3c2c(C)c(C)n3CCCN(C)C)cc1 | -22 | 9 | 9 | 3684 | 6 | 2.8 | 9
O=C(OCCC1Oc2cccnc2NC1=O)c1ccc(Cl)cc1 (stereo not drawn) | -15 | 7 | -2 | 4269 | 6 | 1.7 | 16
CCc1ccc(N2CC(C(=O)OC)CC2=O)cc1 (stereo not drawn) | -21 | 5 | -2 | 4151 | 2 | 3.6 | 1
O=C1NC(c2ccncc2)Nc2sc3c(c21)CCCC3 (stereo not drawn) | -28 | 8 | -3 | 11118 | -4 | 1.8 | 7
CCc1ccc(OCC(=O)O/N=C(\N)c2cccnc2)cc1 | nt | 1 | 7 | 3165 | -12 | 5.1 | 1
COCOc1ccc(-c2cc(=O)c3c(O)cc(OCOC)cc3o2)cc1 | -27 | nt | nt | 5144 | 8 | 0.8 | -15
CN1OCC2Cn3c(nc4ccccc43)C21 (stereo not drawn) | -19 | 3 | 4 | 3030 | nt | 2.9 | 3
COc1cccc(N2[C@@H](CC(=O)O)c3cc(C(F)(F)F)ccc3S2(=O)=O)c1 | -8 | nt | nt | 3676 | 13 | nt | nt
O=C(c1ccc(Cl)cc1)c1ccccc1C(=O)N1CCOCC1 | -15 | 0 | 6 | 10474 | -2 | 1.3 | -1
Cc1ccc(Nc2nc3c(c(=O)[nH]2)CCCC3)cc1 | -29 | 13 | 12 | 12631 | 2 | 1.7 | -3
CCN(CC)CCn1c(NC(=O)c2ccc(Cl)cc2)nc2ccccc21 | -46 | -4 | 1 | 9778 | 0 | -1.2 | 11
Cc1ccc(/C=C/C(=O)N2CCCN(C(=O)/C=C/c3ccc(C)cc3)CC2)cc1 | -21 | 4 | 2 | 2179 | -5 | -5.4 | 1
O=C(Nc1ccccc1N1CCOCC1)c1cccc(Oc2ccccc2)c1 | -25 | 9 | -7 | 4010 | 3 | 6.8 | 7
CS(=O)(=O)N(CC(=O)O)Cc1cccc(CN(CC(=O)O)S(C)(=O)=O)c1 | -5 | 7 | 6 | 3598 | -11 | 7.7 | 3
CSCCCNC(=S)Nc1ccc(N2CCOCC2)cc1N1CCOCC1 | -18 | 3 | 12 | 4033 | 8 | 7.1 | 4
CCOC(=O)C1=C(C)N(c2ccccc2)C(=O)/C1=C\c1ccc(O)c(OC)c1 | -12 | 12 | 0 | 3511 | -2 | 0.5 | 5
Cc1cnc(C)c(N2CCN(Cc3cn(C)nc3-c3cccc(Cl)c3)CC2)n1 | -22 | 7 | 2 | 2710 | 7 | 3.7 | 2
NS(=O)(=O)c1ccc(NC(=S)N2CCN(C(=O)C3CCCO3)CC2)cc1 (stereo not drawn) | -6 | 8 | 7 | 4981 | -5 | 2.0 | 5
Nn1cnnc1N/N=C/c1ccc(Cl)cc1Cl | -14 | nt | nt | 3899 | 5 | nt | nt
CC(=O)N1N=C(c2ccco2)CC1c1cc2cc(C)ccc2nc1Cl (stereo not drawn) | nt | 10 | 1 | nt | -4 | 4.0 | 4
N#Cc1ccccc1OCC(=O)C1CC1 | -25 | -6 | 3 | 5024 | 5 | 2.1 | -2
Oc1ccc(/C=N/Nc2nccnc2Cl)cc1 | -57 | nt | nt | 4508 | 15 | nt | nt
CCSc1nc(O)c(CC)c(=O)n1C(C)CC (stereo not drawn) | -1 | 1 | 7 | 22314* | -7 | 4.1 | -7
CN1CCC(CN)(N2CCN(c3ccccc3)CC2)CC1 | nt | 19 | 4 | 3487 | 2 | 2.5 | 3
O=c1c2ccccc2nc(-c2cccs2)n1-c1cnccn1 | -25 | nt | nt | 4690 | -5 | -1.5 | 0
O=c1c2ccccc2c2ccccc2c(=O)n1Cc1cccnc1 | -24 | 0 | 4 | 12628 | -17 | 0.4 | 0
COCCN=C1NC(=O)C(CC(=O)Nc2cccc(Cl)c2C)S1 (stereo not drawn) | -33 | 10 | 0 | 4691 | 6 | 0.2 | -3
CC1OC1P(=O)(O)O (stereo not drawn) | nt | 3&0 | 0&-2 | nt | nt | 5.6&1.9 | -3&-6
CCOC(=O)Cc1cc(=O)n2[nH]c(C)cc2n1 | -8 | 3 | 4 | 3651 | -1 | 3.1 | 2

Rewritten field by field: four of the compounds above
molecule: CCOC(=O)C1=C(C)N(c2ccccc2)C(=O)/C1=C\c1ccc(O)c(OC)c1
  PrP UTR inh: -12 | Mtb hypoxia inh: 12 | Mtb hypoxia inh growth: 0 | Autofluor counter: 3511 | BJeLR lethal: -2 | RN4220 kill: 0.5 | Sa ugtP lethal: 5
molecule: Cc1cnc(C)c(N2CCN(Cc3cn(C)nc3-c3cccc(Cl)c3)CC2)n1
  PrP UTR inh: -22 | Mtb hypoxia inh: 7 | Mtb hypoxia inh growth: 2 | Autofluor counter: 2710 | BJeLR lethal: 7 | RN4220 kill: 3.7 | Sa ugtP lethal: 2
molecule: NS(=O)(=O)c1ccc(NC(=S)N2CCN(C(=O)C3CCCO3)CC2)cc1 (stereo not drawn)
  PrP UTR inh: -6 | Mtb hypoxia inh: 8 | Mtb hypoxia inh growth: 7 | Autofluor counter: 4981 | BJeLR lethal: -5 | RN4220 kill: 2.0 | Sa ugtP lethal: 5
molecule: Nn1cnnc1N/N=C/c1ccc(Cl)cc1Cl
  PrP UTR inh: -14 | Mtb hypoxia inh: nt | Mtb hypoxia inh growth: nt | Autofluor counter: 3899 | BJeLR lethal: 5 | RN4220 kill: nt | Sa ugtP lethal: nt

Later entries:
SMILES | PrP UTR inh | Mtb hypoxia inh | Mtb hypoxia inh growth | Autofluor counter | BJeLR lethal | RN4220 kill | Sa ugtP lethal
CCc1n[nH]c(=S)n1N=C1CCC(C)CC1 (stereo not drawn) | -8 | 9 | 1 | 3077 | 4 | 4.4 | 1
COc1ccccc1-c1c(NC(=O)C(C)C)n(C)c2ccccc2c1=O | -1 | -9 | -5 | 4572 | -4 | 2.0 | 6
COc1ccc(/C(O)=C2/C(=O)C(=O)N(c3ccccn3)C2c2ccc(F)cc2)cc1 (stereo not drawn) | -36 | 4 | -2 | 3736 | 8 | -0.7 | 1
O=[N+]([O-])c1ccccc1Nc1cccnc1 | -19 | 12 | 4 | 2942 | -3 | 6.1 | -13
CN(Cc1ccccc1)C(=O)c1ncn(Cc2ccccc2)c1C(=O)N(C)Cc1ccccc1 | -17 | 21 | 9 | 4316 | nt | 10 | 10
COc1ccc(C(=O)NC2CCCc3ccccc32)c(OC)c1OC (stereo not drawn) | 9 | 14 | 14 | 3859 | 7 | 4.9 | 1
CSc1nnc2c3c4c(sc3nc(-n3nc(C)cc3C)n12)COC(C)(C)C4 | -17 | nt | nt | 4173 | -1 | -0.2 | 0
OCCCC1CCCN(Cc2cn[nH]c2-c2ccc(F)cc2F)C1 (stereo not drawn) | -21 | 8 | 9 | 3443 | 6 | 2.1 | 7
c1ccc2c(c1)Cn1nnnc1-2 | -9 | 8 | 7 | 8355 | -13 | 5.5 | 14
Cc1ccc(-c2nc3ccc(Cl)cc3n2OC(C)C(=O)O)cc1 (stereo not drawn) | -47 | -2 | -4 | 2478 | 6 | 0.4 | 0
COC(=O)C1CCN(S(=O)(=O)Cc2ccccc2Cl)CC1 | -58 | 19 | 1 | nt | 14 | 4.4 | 7
O=C(c1ccccc1Cl)N(Cc1ccccc1F)N1C(=O)CCCC1=O | -17 | -8 | 8 | 4629 | 2 | -0.9 | -9
Cc1ccc(-c2cc(C(=O)N3N=C(C(F)F)CC3(O)C(F)F)c3ccccc3n2)cc1C (stereo not drawn) | nt | 13 | 1 | 10021 | -1 | 10 | 80
O=C(c1csc2ccccc12)N1CCCCCC1 | -79 | 17 | 17 | 20758* | 1 | 5.4 | -13
CCOc1cccc(-c2nc3c(s2)CCc2onc(-c4cccc([N+](=O)[O-])c4)c2-3)c1 | -21 | 17 | 3 | 3717 | 4 | 13 | 8
Cc1cc(C)n2nc(C(=O)Nc3ccc(S(=O)(=O)N(C)C)cc3)nc2n1 | -13 | 1 | 1 | 4802 | -2 | 4.3 | 1
Cc1ccc(S(=O)(=O)N2CCOCC2)cc1NC(=O)CSc1ncccn1 | -16 | -1 | 0 | 3897 | -2 | 4.2 | 6
Cc1c(CCC(C)C)c(=O)n2c([nH]c3ccccc32)c1C#N | -5 | nt | nt | 3209 | 17 | nt | nt
NC(=O)CSc1nnc(-c2ccc(O)cc2)n1Cc1ccco1 | -27 | 8 | 6 | 3954 | 10 | 7.0 | -7
COc1ccc(OC)c(-n2c(C)nc3cc(C(=O)O)ccc32)c1 | -12 | nt | nt | 5747 | -13 | 5.2 | 10
CN(C)/C=C1/Oc2c(ccc3ccccc23)C1=O | -6 | -2 | 0 | 3756 | -1 | 4.1 | -10
Cc1cccc(NC(=O)c2cc(S(=O)(=O)N3CCc4ccccc43)cn2C)c1 | -15 | 8 | 8 | 6173 | -3 | -3.9 | -1
CCOC(=O)Cc1cc(C)[nH]c1C(=O)OCC | -17 | -5 | 7 | 4639 | 6 | 2.1 | 3
Cc1cc(=O)oc2c(C)c(OC(C)C(=O)NCCCn3ccnc3)ccc12 (stereo not drawn) | -11 | 2 | 1 | 4347 | 0 | 6.6 | 13
CCCOc1ccc(C(=O)c2ccccc2C(=O)OC2CCOC2=O)cc1OCCC (stereo not drawn) | -7 | 0 | -2 | 3527 | nt | 2.5 | 4
CN(C)c1ccc(CNC(=O)CCc2ccc(S(=O)(=O)N3CCCCCC3)cc2)cc1 | -14 | 1 | -5 | nt | nt | 0.1 | 8
CCC(=O)c1cc2c(C)cc(=O)oc2c(C)c1OC(=O)C(C)C | -11 | 3 | 4 | 2028 | -1 | 3.9 | -1
CC1OC(OC2C(CO)OC(Oc3c(-c4ccc(O)cc4)oc4cc(O)cc(O)c4c3=O)C(O)C2O)C(O)C(O)C1O (stereo not drawn) | nt | -1 | -3 | nt | nt | 3.1 | -2
COc1nc2ccccc2c(=O)n1-c1ccc(Cl)cc1 | -9 | 14 | 4 | 2734 | -22 | 1.4 | 1
COc1cccc(C2C3=C(CC(C)(C)CC3=O)Nc3cc(OC)c(OC)cc32)c1 (stereo not drawn) | -25 | 9 | 0 | 4457 | 5 | 0.0 | -2
COc1ccc(NC(=O)C=C(C)C)cc1Cl | -102 | 19 | 5 | 9831 | 5 | 3.9 | 3
CC(=NNC(=O)Cc1ccc(Cl)cc1)c1cccc(NC(=O)c2cccnc2)c1 | nt | 6 | 0 | nt | nt | -3.4 | 13
COC(=O)Cn1c(=O)c2c(n(Cc3ccccc3)c1=O)N/C(=C/c1ccc(OC)cc1)C2=O | -34 | 8 | 10 | 5059 | 3 | 9.3 | 4
O=c1[nH]c(=S)n(Cc2ccc(F)cc2)c(O)c1/C=N/N1CCCCC1 | -18 | -1 | 2 | 2511 | -5 | 1.8 | -1
